Env fusion inh: HIV envelope-mediated fusion inhibition | inhibition, % at 12.3 µM | AID 651610 | HeLa-JRFL Env/CEM21 cell fusion, luciferase | 360,000 compounds, 1.1% hits;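 active means mean replicate inhibition score of at least 50 and every replicate individually at or above 50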;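 further: 0% = plate neutral controls and 100% = maraviroc near 300 nM; one replicate is shown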
Yeast UUG start: yeast start codon fidelity modulation; S. cerevisiae UUG-firefly luciferase reporter, luminescence/redox ratio; AID 602363; activity score, % at 18.7 µM; 350,000 compounds, 0.13% hits;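 active means replicate mean at a twofold rise or more, about +100% in these data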;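 further: firefly luciferase made from a UUG start codon reports start codon fidelity; reporter light over untreated wells divided by growth signal over untreated wells; some hits fall short of that in this replicate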
Numbers without * were called inactive; & = joins results of further samples; [ ] = another dose, or the depositor's remark. The list is partial, so the mix of outcomes need not match the whole.

Env fusion inh	Yeast UUG start	molecule
19[16.7 µM]	-16	C[C@@H]1CN([C@H](C)CO)C(=O)c2cc(NC(=O)Nc3ccc4c(c3)OCO4)ccc2O[C@H]1CN(C)S(=O)(=O)c1cccs1
9[16.7 µM]	10	COc1ccccc1C#Cc1cnc2c(c1)C(=O)N([C@@H](C)CO)C[C@H](C)[C@@H](CN(C)C(=O)CC1CC1)O2
5[16.7 µM]	14	C/C=C/c1ccc2c(c1)O[C@@H](CN(C)S(C)(=O)=O)[C@H](C)CN([C@@H](C)CO)S2(=O)=O
-2[16.7 µM]	7	COc1ccc(-c2cnc3c(c2)C(=O)N([C@H](C)CO)C[C@H](C)[C@H](CN(C)Cc2cccnc2)O3)cc1
11[16.7 µM]	5	COc1ccc(C#Cc2cnc3c(c2)C(=O)N([C@@H](C)CO)C[C@@H](C)[C@H](CN(C)CC2CCOCC2)O3)cc1
12[16.7 µM]	22	CCCNC(=O)C[C@@H]1CC[C@H]2[C@@H](COc3ccc(NC(=O)c4cc(C)on4)cc3C(=O)N2C)O1
-4[16.7 µM]	-2	CC(C)NC(=O)N(C)C[C@@H]1Oc2ccc(NS(=O)(=O)c3cn(C)cn3)cc2CC(=O)N([C@@H](C)CO)C[C@H]1C
22[16.7 µM]	-6	C[C@@H]1CN([C@@H](C)CO)S(=O)(=O)c2ccc(C#Cc3cccnc3)cc2O[C@H]1CN(C)CC1CCOCC1
19[16.7 µM]	10	Cc1ccc(S(=O)(=O)N(C)C[C@@H]2OCCCC[C@H](C)Oc3ccc(NC(=O)NC(C)C)cc3C(=O)N([C@@H](C)CO)C[C@@H]2C)cc1
-7[16.7 µM]	9	COCCNC(=O)C[C@H]1C[C@@H]2c3cc(NC(=O)C4CCOCC4)ccc3O[C@@H]2[C@@H](CO)O1
14&-18[16.7 µM]	-6&-8	C[C@H](CO)N1C[C@H](C)[C@@H](CN(C)Cc2cccnc2)Oc2cc(Br)ccc2S1(=O)=O
2[16.7 µM]	5	CNC[C@H]1Oc2cc(-c3ccc(OC)cc3)ccc2S(=O)(=O)N([C@H](C)CO)C[C@@H]1C
-4[16.7 µM]	1	COc1cccc(C(=O)Nc2ccc3c(c2)OC[C@@H](C)N(C)C[C@H](C)[C@H](OC)CN(C)C3=O)c1
-4[16.7 µM]	19	COc1ccc(NC(=O)N(C)C[C@H]2Oc3c(NC(=O)c4ccc(-c5nccs5)cc4)cccc3C(=O)N([C@@H](C)CO)C[C@@H]2C)cc1
3[16.7 µM]	1	CCNC(=O)C[C@H]1CC[C@H]2[C@H](COc3ccc(NC(=O)Nc4cccc(F)c4)cc3C(=O)N2C)O1
-26[16.7 µM]	0	CN1C(=O)c2cc(NC(=O)C3CC3)ccc2OC[C@H]2O[C@@H](CC(=O)Nc3ccc(F)cc3)CC[C@@H]21
-100[16.7 µM]	8	C[C@@H]1CN([C@H](C)CO)S(=O)(=O)c2ccc(C#CC3(O)CCCC3)cc2O[C@@H]1CN(C)C(=O)Nc1ccc(F)cc1
4[16.7 µM]	-18	C[C@@H]1CN([C@H](C)CO)C(=O)c2cc(NC(=O)Nc3ccc(F)cc3)ccc2O[C@@H](C)CCCCO[C@@H]1CN(C)S(=O)(=O)c1cccs1
-9[16.7 µM]	-30	C[C@H](CO)N1C[C@H](C)[C@@H](CN(C)Cc2ccccn2)Oc2ncc(-c3ccc(C#N)cc3)cc2C1=O
1[16.7 µM]	20	C[C@@H]1CCCCO[C@@H](CN(C)C(=O)Cc2ccccc2)[C@@H](C)CN([C@@H](C)CO)C(=O)c2cc(NC(=O)C3CCCCC3)ccc2O1

Continued, overlapping the part above by 5 compounds.
Env fusion inh	Yeast UUG start	molecule
-26[16.7 µM]	0	CN1C(=O)c2cc(NC(=O)C3CC3)ccc2OC[C@H]2O[C@@H](CC(=O)Nc3ccc(F)cc3)CC[C@@H]21
-100[16.7 µM]	8	C[C@@H]1CN([C@H](C)CO)S(=O)(=O)c2ccc(C#CC3(O)CCCC3)cc2O[C@@H]1CN(C)C(=O)Nc1ccc(F)cc1
4[16.7 µM]	-18	C[C@@H]1CN([C@H](C)CO)C(=O)c2cc(NC(=O)Nc3ccc(F)cc3)ccc2O[C@@H](C)CCCCO[C@@H]1CN(C)S(=O)(=O)c1cccs1
-9[16.7 µM]	-30	C[C@H](CO)N1C[C@H](C)[C@@H](CN(C)Cc2ccccn2)Oc2ncc(-c3ccc(C#N)cc3)cc2C1=O
1[16.7 µM]	20	C[C@@H]1CCCCO[C@@H](CN(C)C(=O)Cc2ccccc2)[C@@H](C)CN([C@@H](C)CO)C(=O)c2cc(NC(=O)C3CCCCC3)ccc2O1
-17[16.7 µM]	16	COc1ccc(-c2cnc3c(c2)C(=O)N([C@@H](C)CO)C[C@@H](C)[C@H](CN(C)S(C)(=O)=O)O3)cc1
-47[16.7 µM]	5	CNC[C@@H]1Oc2cc(C#Cc3ccccc3)ccc2S(=O)(=O)N([C@@H](C)CO)C[C@H]1C
7[16.7 µM]	-2	C[C@H](CO)N1C[C@H](C)[C@H](CN(C)Cc2ccc3c(c2)OCO3)Oc2ccc(NC(=O)CCCCCC(=O)Nc3ccccc3N)cc2CC1=O
21[16.7 µM]	12	C[C@@H]1CCCCO[C@H](CN(C)Cc2ccc(C(F)(F)F)cc2)[C@H](C)CN([C@@H](C)CO)C(=O)c2cc(NC(=O)c3ccccc3)ccc2O1
17[16.7 µM]	-21	O=C(Nc1ccc(Cl)cc1)N[C@@H]1CC[C@@H](CCn2cc(Cc3ccccc3)nn2)O[C@H]1CO
3[16.7 µM]	66	CCOC(=O)C1C2C=CC3(O2)C1C(=O)N(Cc1ccccc1)C3C(=O)NCc1ccccc1 (stereo not drawn)
-12[16.7 µM]	-10	O=C(O)C[C@@H]1C=C[C@H](NC(=O)Nc2cc(F)ccc2F)[C@H](CO)O1
-11[16.7 µM]	-14	C[C@H]1CN([C@@H](C)CO)S(=O)(=O)c2ccc(-c3cccnc3)cc2O[C@H]1CN(C)Cc1cccnc1
-1[16.7 µM]	-3	C[C@H]1CN([C@@H](C)CO)C(=O)CCCn2nncc2CO[C@H]1CN(C)Cc1ccc(O)cc1
-7[16.7 µM]	-12	C[C@H]1CN([C@@H](C)CO)C(=O)Cc2cc(NS(C)(=O)=O)ccc2O[C@@H]1CN(C)S(=O)(=O)c1cn(C)cn1
6[16.7 µM]	-2	C[C@H]1CN([C@@H](C)CO)C(=O)Cc2cc(NC(=O)Cn3cnnn3)ccc2O[C@@H]1CN(C)Cc1ccc(Oc2ccccc2)cc1
-9[16.7 µM]	-14	CC(=O)N(C)C[C@H]1Oc2ncc(-c3cncnc3)cc2C(=O)N([C@@H](C)CO)C[C@@H]1C
25[16.7 µM]	-10	C[C@@H]1CN([C@H](C)CO)C(=O)c2cccc(NC(=O)C3CCCCC3)c2O[C@H]1CN(C)CC1CC1
11[16.7 µM]	32	C[C@@H]1CN([C@@H](C)CO)C(=O)Cc2cc(N(C)C)ccc2O[C@H]1CN(C)C(=O)Nc1cccc2ccccc12
-1[16.7 µM]	-5	C[C@@H]1CN([C@H](C)CO)C(=O)c2cc(C#CCN(C)C)cnc2O[C@H]1CN(C)C(=O)NC1CCCC1
13[16.7 µM]	4	COc1cccc(S(=O)(=O)N[C@@H]2CC[C@@H](CC(=O)NCc3ccc(Cl)cc3)O[C@H]2CO)c1
-2[16.7 µM]	2	C[C@@H]1CCCCO[C@@H](CN(C)C(=O)c2ccccc2)[C@H](C)CN([C@@H](C)CO)C(=O)c2cc(NS(C)(=O)=O)ccc2O1
-3[16.7 µM]	2	CC(C)C(=O)Nc1ccc2c(c1)C(=O)N(C)[C@H]1CC[C@H](CC(=O)NCc3ccccc3)O[C@H]1CO2
-23[16.7 µM]	4	CCCNC(=O)N(C)C[C@@H]1Oc2cc(C3=CCCCC3)ccc2S(=O)(=O)N([C@H](C)CO)C[C@H]1C
13[16.7 µM]	-7	C[C@H](CO)N1C[C@H](C)[C@@H](CN(C)C(=O)Nc2ccc(C(F)(F)F)cc2)Oc2cc(-c3ccncc3)ccc2S1(=O)=O
-22[16.7 µM]	15	COc1ccc(S(=O)(=O)Nc2ccc3c(c2)CC(=O)N([C@@H](C)CO)C[C@@H](C)[C@H](CN(C)C(=O)Nc2ccc(F)cc2)O3)cc1
-6[16.7 µM]	-7	O=C(O)C[C@@H]1C[C@@H]2c3cc(NC(=O)Nc4ccccc4F)ccc3O[C@@H]2[C@H](CO)O1
1[16.7 µM]	-25	COc1ccc(NC(=O)N(C)C[C@@H]2OCCCC[C@@H](C)Oc3ccc(NS(=O)(=O)c4cn(C)cn4)cc3C(=O)N([C@H](C)CO)C[C@H]2C)cc1
23[16.7 µM]	9	C[C@@H]1CCCCO[C@H](CN(C)S(=O)(=O)c2cn(C)cn2)[C@H](C)CN([C@@H](C)CO)C(=O)c2cc(NC(=O)CCC(F)(F)F)ccc2O1
-21[16.7 µM]	20	C[C@@H]1CCCCO[C@@H](CN(C)Cc2ccc(C(=O)O)cc2)[C@@H](C)CN([C@@H](C)CO)C(=O)c2cc(NS(=O)(=O)c3cccs3)ccc2O1
16[16.7 µM]	15	O=C(Nc1cccc(Cl)c1)N[C@H]1CC[C@H](CCNC(=O)C2CC2)O[C@H]1CO
-10[16.7 µM]	14	CC(=O)N[C@H]1CC[C@H](CCNC(=O)C2CCC2)O[C@@H]1CO
-14[16.7 µM]	7	O=C(C[C@H]1C=C[C@@H](NS(=O)(=O)c2ccc(F)cc2)[C@H](CO)O1)NCc1ccncn1
-43[16.7 µM]	21	Cc1ccc(S(=O)(=O)Nc2ccc3c(c2)C(=O)N([C@@H](C)CO)C[C@@H](C)[C@H](CN(C)C(=O)c2ccccc2)OCCCC[C@H](C)O3)cc1
11[16.7 µM]	-3	COc1cccc(S(=O)(=O)Nc2ccc3c(c2)C(=O)N(C)[C@H]2CC[C@@H](CC(=O)O)O[C@@H]2CO3)c1
-5[16.7 µM]	-6	Cc1noc(C)c1S(=O)(=O)Nc1ccc2c(c1)C(=O)N([C@H](C)CO)C[C@@H](C)[C@H](CN(C)Cc1ccncc1)O2
0[16.7 µM]	-4	O=C(C[C@H]1CC[C@H](NC(=O)CC2CC2)[C@@H](CO)O1)NCc1ccc(-c2ccccc2)cc1
4[16.7 µM]	10	Cc1noc(C)c1NC(=O)N(C)C[C@H]1Oc2ncc(C#CC(C)C)cc2C(=O)N([C@@H](C)CO)C[C@@H]1C
6[16.7 µM]	8	CCC(=O)N[C@H]1CC[C@@H](CCn2cc(C3CC3)nn2)O[C@H]1CO
8[16.7 µM]	-31	C[C@H](CO)N1C[C@H](C)[C@@H](CN(C)C(=O)CN(C)C)Oc2ncc(-c3ccccc3F)cc2C1=O
-3[16.7 µM]	5	Cc1ccc(S(=O)(=O)N(C)C[C@@H]2Oc3ccc(NC(=O)Nc4c(C)noc4C)cc3CC(=O)N([C@@H](C)CO)C[C@@H]2C)cc1
11[16.7 µM]	21	C[C@@H]1CN([C@@H](C)CO)C(=O)c2cccc(NC(=O)c3cnccn3)c2O[C@@H]1CN(C)S(=O)(=O)c1ccc(Cl)cc1
8[16.7 µM]	7	CCC(=O)N(C)C[C@H]1Oc2cc(-c3ccc(C)cc3)ccc2S(=O)(=O)N([C@H](C)CO)C[C@H]1C
14[16.7 µM]	-14	CCC(=O)N(C)C[C@@H]1Oc2cc(C#Cc3ccncc3)ccc2S(=O)(=O)N([C@@H](C)CO)C[C@H]1C
-8[16.7 µM]	7	COc1ccc(S(=O)(=O)Nc2ccc3c(c2)CC(=O)N([C@H](C)CO)C[C@@H](C)[C@@H](CN(C)C(=O)NC(C)C)O3)cc1
5[16.7 µM]	-15	CNC[C@H]1OCCCC[C@@H](C)Oc2ccc(N(C)C)cc2C(=O)N([C@H](C)CO)C[C@@H]1C
0[16.7 µM]	2	CC(C)CC#Cc1cnc2c(c1)C(=O)N([C@H](C)CO)C[C@@H](C)[C@H](CN(C)C(=O)CN1CCOCC1)O2
-22[16.7 µM]	-8	C[C@@H]1CN([C@@H](C)CO)C(=O)Cc2cc(NS(=O)(=O)c3ccc(Cl)cc3)ccc2O[C@H]1CN(C)S(=O)(=O)c1cccs1
8[16.7 µM]	32	CCCC(=O)Nc1ccc2c(c1)OC[C@@H](C)N(Cc1ccncc1)C[C@H](C)[C@@H](OC)CN(C)C2=O
23[16.7 µM]	17	COc1cccc(C#Cc2ccc3c(c2)O[C@@H](CN(C)C)[C@@H](C)CN([C@H](C)CO)S3(=O)=O)c1
-15[16.7 µM]	7	CCC(=O)N(C)C[C@@H]1Oc2cc(-c3ccncc3)ccc2S(=O)(=O)N([C@H](C)CO)C[C@@H]1C
0[16.7 µM]	14	O=C(NCC[C@H]1CC[C@H](NC(=O)C2CC2)[C@@H](CO)O1)c1ccc(F)cc1
-29[16.7 µM]	12	COc1ccc(S(=O)(=O)Nc2ccc3c(c2)C(=O)N([C@H](C)CO)C[C@@H](C)[C@@H](CN(C)Cc2ccccc2)OCCCC[C@@H](C)O3)cc1
10[16.7 µM]	-10	C[C@@H]1CN([C@@H](C)CO)C(=O)c2cccc(NS(=O)(=O)c3ccccc3)c2O[C@@H]1CN(C)S(=O)(=O)c1ccc(Cl)cc1
7[16.7 µM]	8	COc1ccc(CN(C)C[C@H]2OCCCC[C@H](C)Oc3ccc(NC(=O)Nc4ccc(F)cc4)cc3C(=O)N([C@@H](C)CO)C[C@@H]2C)cc1

An excerpt of these results, in CSV form.
molecule,Env fusion inh,Yeast UUG start
O=C(NCC[C@H]1CC[C@H](NC(=O)C2CC2)[C@@H](CO)O1)c1ccc(F)cc1,0[16.7 µM],14
CC(C)CC#Cc1cnc2c(c1)C(=O)N([C@H](C)CO)C[C@@H](C)[C@H](CN(C)C(=O)CN1CCOCC1)O2,0[16.7 µM],2

Screening results from PubChem.
